# HPGD inh: inhibitors of human 15-hydroxyprostaglandin dehydrogenase (HPGD); P15428; purified HPGD, NADH fluorescence kinetic, PGE2 substrate; Potency, µM, without a hit: at the top dose activity change, negative = inhibition, actives largely listed as inhibitors; 150,000 compounds, 4.3% hits; active = well fitted inhibition curve with a large enough effect (not every such curve was filed as active); inconclusive = small, poorly fitted or top-dose-only effect, or another doubt; inactive = no such curve, though single readings can be large or run the other way;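 note: top concentration of the series not given in the record; plate controls included wells without enzyme; inactives centre near -10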
# Target sequence (P15428 whole entry, looked up): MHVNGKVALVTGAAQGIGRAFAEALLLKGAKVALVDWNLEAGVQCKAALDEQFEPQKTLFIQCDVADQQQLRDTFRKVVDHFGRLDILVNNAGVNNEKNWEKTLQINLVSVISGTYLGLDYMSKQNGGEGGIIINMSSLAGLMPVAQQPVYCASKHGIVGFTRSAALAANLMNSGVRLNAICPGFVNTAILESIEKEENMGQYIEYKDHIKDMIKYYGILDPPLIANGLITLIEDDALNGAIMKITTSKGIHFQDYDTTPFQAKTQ
#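 NADH formation kinetics: reaction with 30 uM PGE2 and 1 mM NAD+ (final), 20 nM enzyme, Tris-HCl pH 8 with Tween 20, after 15 min compound preincubation at room temperature. Fluorescence change, last versus first of five reads.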
# * marks the source's active call; other numbers are inactive results; u = inconclusive; & = joins results of further samples. % is set by controls: 0 for no effect and ±100 for the full control effect; potency is the fitted concentration of half-maximal effect. An excerpt. The share of hits here may be higher or lower than overall.
Compound	HPGD inh
O=C(CSc1nc2ccccc2s1)Nc1cc(S(=O)(=O)N2CCOCC2)ccc1O	13µM*
COCc1cc(/C=N\NC(=O)COc2ccc(Cl)cc2)ccc1OC	u
Cn1c(Cl)c(/C=N/OC(=O)c2cccc(Cl)c2)c2ccccc21	-24%
CC(C)C(c1nnnn1C1CCCC1)N1CCN(C(=O)c2ccco2)CC1 (stereo not drawn)	-1%
CCc1ccc(C(=O)/C=C/c2cnn(C)c2C)s1	u
COCCN1C(=O)c2ccccc2C(C(=O)Nc2ccc3c(c2)OCCO3)C1c1ccc(F)cc1 (stereo not drawn)	-15%
CC1(c2cc(C(F)(F)F)n3nc(C(=O)O)cc3n2)CC1	-10%
Cc1cc(NC(=O)CCOc2ccccc2)no1	-9%
C/C(=N\O)C1(C)N(O)C(C)(C)C(c2ccc(Br)cc2)=[N+]1[O-] (stereo not drawn)	-19%
CCCn1c2ccccc2c2nnc(SCC(=O)Nc3ncccn3)nc21	-38%
CC(C)(C)C(=O)OCc1cn(-c2ccccc2)nn1	-15%
CC1Cc2ccccc2N1C(=O)CSc1nnc2n1C(C)(C)Cc1ccccc1-2 (stereo not drawn)	-1%

# The results go on.
Compound	HPGD inh
NC(=S)N/N=C/c1ccc(-c2cc(Cl)cc(Cl)c2)o1	u
CCN(CCCNC(=O)C1CCN(S(=O)(=O)c2c(C)[nH]c(=O)[nH]c2=O)CC1)c1cccc(C)c1	5%
O=C(Nc1cccc(F)c1)N1CC2(CCN(C(=O)c3ccncc3)CC2)C1	-22%
COc1ccc(S(=O)(=O)CCc2nc3ccccc3s2)cc1	-8%
CCOC(=O)c1ccc2[nH]cc(C(C)=O)c(=O)c2c1	u
CN(C)[C@H]1N(C(=O)c2ccc(Br)cc2)N=C2c3ccccc3S(=O)(=O)N21	-4%
O=C(CN1C(=O)c2ccccc2C1=O)c1ccccc1	-14%
CCCC[C@H]1C(=O)N(c2ccccc2)N(c2ccc(O)cc2)C1=O	-29%
CCOC(=O)c1[nH]c2ccc(Br)cc2c1NC(=O)CCN1CCCC(C)(C)C1	-20%
COc1ccc(NC(=O)Cn2nnc(C(N)=O)c2N)c(OC)c1	-5%
Cc1ccc(N=c2ssnc2Cl)cc1	2.8µM*
Cc1cc(OCc2nc(-c3cccs3)no2)cc(C)c1Cl	-27%

# Other structures follow.
Compound	HPGD inh
CCN(CC)C(=O)C1CCN(Cc2ccc(Br)cc2)CC1	-1%
CN(C)c1ccc(C(=C2C=CC(=[N+](C)C)C=C2)c2ccccc2)cc1	u
CCOc1ccc(C(=O)c2ccc(OC)c(O)c2O)cc1	-17%
CCOc1ccc2[nH]c(C)c(CN3CCCCC3)c(=O)c2c1	u
COc1cc(OC)c(C2C(C(=O)Nc3ccccc3)=C(C)Nc3ncnn32)cc1OC (stereo not drawn)	-7%
O=C(C1=C(O)C(=O)N(Cc2ccccc2)C1c1ccco1)c1ccco1 (stereo not drawn)	-15%
CCCc1cc(=O)n2[nH]c(CCc3ccccc3)nc2n1	-3%
Cc1ccc(SCC(=O)Nc2cccc(NC(=O)c3ccco3)c2)cc1	-4%
O=c1[nH]c(=O)n(CCO)c2nnn(Cc3ccccc3)c12	28µM*
COc1ccccc1/C=C/CN1CCN(c2ccccc2)CC1	-11%
Cc1ccc2[nH]c(=O)c3cc(C(=O)N(CCCOC(C)C)Cc4ccco4)sc3c2c1	u
CCOC(=O)C1C(=O)C=C(c2cccs2)CC1c1ccccc1 (stereo not drawn)	-20%

# Additional entries follow:
Compound	HPGD inh
O=C(NC1CCC(NC(=O)C(F)(F)C(F)F)CC1)C(F)(F)C(F)F (stereo not drawn)	-9%
O=C(C1CCN(S(=O)(=O)c2cccs2)CC1)N1CCCCCC1	u
COC(=O)C1=C(C(=O)OC)[C@@H]2Nc3ccccc3[C@@]23C[C@@H](C(=O)OC)N(S(=O)(=O)c2ccc(Br)cc2)C3=N1	-7%
Cc1cccc(C)c1NC(=O)CSCCO	-10%
CCC(CC)NC(=O)COC(=O)c1cc(Br)ccc1Cl	32µM*
O=C(Nc1ccc2ccccc2c1)c1ccc(NS(=O)(=O)c2ccc(Br)s2)cc1	-14%
Cc1ccc(Cl)cc1NC(=O)C(Cc1ccccc1)N1C(=O)C2C3CCC(C3)C2C1=O (stereo not drawn)	-3%
CC1(OC(=O)C2CCCC2)C(=O)C=C2C=C(c3ccsc3)N(C3CCCCC3)C=C2C1=O (stereo not drawn)	1%
O=c1cc(-c2ccccc2O)oc2cc(O)cc(O)c12	-30%
c1ccc(CC2CNc3ccccc3CN2)cc1 (stereo not drawn)	-7%
CC(C)N=c1scc(-c2ccco2)n1/N=C/c1ccc(O)c(O)c1	32µM*
CCOC(=O)NC(=S)c1ccc[nH]1	-5%

# (list continues)
Compound	HPGD inh
CCC(C)NS(=O)(=O)c1cccs1 (stereo not drawn)	4%
CCC(=O)N1C2=C(c3ccccc3[C@@H]1CC(=O)Nc1ccc3ccccc3c1)[C@@H]1C(=O)N(c3ccccc3)C(=O)[C@@H]1[C@H](C)C2	-27%
CC(C)N(C(=O)CSc1nnc(-c2cc3ccccc3cc2O)n1Cc1ccco1)C(C)C	-20%
O=C1c2ccccc2N2C(=O)c3ccccc3C2N1Cc1ccco1 (stereo not drawn)	-13%
COC(=O)c1ccc(Nc2cc(C)nc3nc(C)nn23)cc1	-26%
O=c1c(-c2ccc(F)cc2)nc2cnc(Nc3ccccc3)nc2n1Cc1cccs1	-3%
COC(=O)Nc1c(C(=O)OC)cc(OC)c(OC)c1OC	-17%
COc1ccc(C(=O)COC(=O)CN2C(=O)NC(C)(C)C2=O)cc1OC	-8%
COC(=O)CSc1nc(NC(C)C)nc(N2CCOCC2)n1	-12%
Cn1c(SCC(=O)N2CCCCC2)nnc1-c1ccc(S(=O)(=O)N2CCOCC2)cc1	u
Cc1cc(-c2ccccc2)nc(N(C)NC(=O)c2cccc(C(F)(F)F)c2)c1S(C)(=O)=O	-16%
O=C(CSc1nc(-c2ccccc2)cc(=O)[nH]1)N1CCOCC1	2%

# Going on with the list.
Compound	HPGD inh
COc1ccc(NC(=O)N2CC[C@@]3(CCCN(C(=O)c4cccn4C)C3)C2)cc1	-10%
CNc1nc(OC)nc(N2CCOCC2)n1	-1%
O=C(Nc1nc(-c2ccccc2)cs1)c1ccc(S(=O)(=O)N2CCc3ccccc32)cc1	-24%
CCn1nccc1C(=O)Nc1cc(Cl)ccc1Cl	-16%
Cc1ccc(S(=O)(=O)CCC(=O)OCC(=O)Nc2cc(C)on2)cc1	-11%
CC(=O)c1cc(-c2ccccc2)n(CC(=O)N2CCC(N3CCCCC3)CC2)c1C	0%
O=C(c1cc(C2CC2)on1)N1CCN(C(c2ccccc2)c2ccccc2)CC1	-18%
COc1ccc(OC)c2sc(NC(=O)c3ccc(Cl)s3)nc12	-12%
Cc1cccc(-n2c(N)cc(=O)[nH]c2=S)c1C	-7%
COc1ccc(C(=O)Nc2ccc3nc(N4CCCCC4)cc(C)c3c2)cc1OC	-27%
N#Cc1ccsc1NC(=O)CN1CCN(c2ccccc2)CC1	-7%
COc1ccc(CNC(=O)c2c(C)oc3c2C(=O)c2ccccc2C3=O)cc1	-6%

# Remaining list, next part
Compound	HPGD inh
CCOC(=O)c1ccc2c(c1)nc(SCc1cn3ccsc3n1)n2CC	-15%
COCCNC(=O)CSCc1nc(-c2ccc(SC)cc2)oc1C	u
C/C(N)=C(/C#N)C(=O)CSc1cc(Cl)ccc1Cl	-4%
COCCN1C(=O)N[C@@H](c2ccccc2)C(C(=O)OC)=C1C	-10%&-7%
CCNc1c(C(=O)O)ccc2c1C(=O)c1ccccc1C2=O	-12%
Cc1cccc(N2C(=O)CC(Sc3nc(C)cc(C)n3)C2=O)c1 (stereo not drawn)	-26%
COCC(=O)N1CCC2(CCCN(c3ccncc3)C2)CC1	-5%
CCOC(=O)N1CCC(Nc2c(-c3ccccc3)c(=O)c2=O)CC1	-8%
COc1ccc(C(=O)O/N=C(\N)Cc2ccc(Cl)cc2)cc1OC	-19%
Cc1ccccc1NC(=O)C1CCCN(S(=O)(=O)c2cnc[nH]2)C1 (stereo not drawn)	-10%
O=C(COc1ccccc1)Nc1nnc(-c2ccc3c(c2)CCCC3)o1	-15%
Cc1nc(Nc2ccccc2)c2nc(-c3ccccc3)n(CCN3CCOCC3)c2n1	u

# Next structures:
Compound	HPGD inh
COCCCNCCCCOc1cccc(Br)c1	5%
Cc1cc(NC(=O)c2ccc3c(c2)C(=O)N(C2CCCCC2)C3=O)no1	-4%
CCOC(=O)c1c2ccc(OCC(=O)N/N=C/c3ccccc3C(F)(F)F)cc2n2ccccc12	-10%
COc1ccc(/C(C)=N/N=C(\C)c2ccc(OC)cc2OC)c(OC)c1	1%
COc1ccc(CNC(=O)Cn2c(=O)oc3ccccc32)cc1OC	-10%
CCOC(=O)c1ccc(NC(=O)CN2C(=O)C(CC)SC(CC)C2=O)cc1 (stereo not drawn)	-18%
COc1cc([N+](=O)[O-])ccc1NC(=O)C[n+]1ccccc1	-4%
COc1ccc(N2C(=O)CNC2=S)cc1	-14%
Cc1cc(NS(=O)(=O)c2ccc(NC(=S)NC(=O)c3ccc(F)cc3)cc2)no1	-7%
CCOC(=O)c1ccc(N2Cc3cc(C)c(C)cc3C2)cc1O	-14%
O=P(O)(O)CCP(=O)(c1ccccc1)c1ccccc1	-5%
Cc1ccc(C)c(N(C(=O)CS(=O)CC(=O)Nc2ccc3c(c2)OCO3)C(C)C(=O)NC2CCCC2)c1 (stereo not drawn)	-1%

# The list goes on:
Compound	HPGD inh
COc1ccc(OC)c(-c2cc(C(=O)Nc3c(C)nn(Cc4ccccc4C)c3C)no2)c1	u
O=C1c2ccccc2C(O)(Cc2ccccc2)N1Cc1ccco1 (stereo not drawn)	3%
COC(=O)c1cccc(NC(=O)c2nn(C)c(=O)c3ccccc23)c1	22%
CCc1ccc(NC(=O)c2cccnc2)cc1	-3%
OC1CN=C2Sc3ccccc3N2C1 (stereo not drawn)	-3%
O=S(=O)(/N=C/N1CCOCC1)c1ccc(Cl)cc1	-2%
O=C(O)c1cccc(CSc2nc(-c3ccccc3)cc(C(F)(F)F)n2)c1	-18%
c1ccc(CSc2ncccn2)cc1	-21%
COc1ccc(Cl)cc1NC(=O)Cn1cccc1	-16%
CC[C@@H]1C(c2ccccc2)=NN(c2ccc(Br)cc2)[C@H]1C(=O)N1CCOC1=O	u
CCc1nc2c(c(=O)c3ccccc3n2C)c(=O)n1-c1ccc(F)cc1	-17%
Nc1cc(Cl)ccc1Oc1ccccc1	-12%

# New compounds follow.
Compound	HPGD inh
Clc1ccc2[nH]c3c(NCCCN4CCOCC4)ncnc3c2c1	u
O=C(O)Cn1c(P(=O)(O)c2ccccc2)nc2ccccc21	-6%
S=c1[nH]nc(-c2ccco2)n1C1CCCCC1	u
O=S(=O)(Cc1ccccc1)Nn1cnnc1	-7%
CCCOc1ccc(CSC2=NCCN2)cc1[N+](=O)[O-]	6%
Cc1ccc(C(=O)COC(=O)c2ccc3c(c2)C(=O)N(c2cccc4ncccc24)C3=O)cc1C	-1%
COc1ccc(-c2noc(CSc3nc(N)c(-c4ccccc4)c(=O)[nH]3)n2)cc1OC	16µM*
O=S1(=O)N=C(Nc2ccc(O)c(CN3CCCCC3)c2)c2ccccc21	-20%
CC(C)Oc1ccc(NC(N)=O)cc1	-4%
CC1(C)NC(=O)N(CC(O)CN2CCCCC2)C1=O (stereo not drawn)	2%
O=C(CSc1nc(-c2ccco2)cc(C(F)(F)F)n1)NCCCn1ccnc1	-27%
Nn1c(SC/C=C/c2ccccc2)nnc1-c1cccnc1	-11%

# Later entries:
Compound	HPGD inh
COc1cccc(NC(=O)C(NC2CCCC2)c2ccccc2)c1 (stereo not drawn)	-3%
Cc1sc2ncn3c(C)nnc3c2c1C	-19%
Cc1noc(C(=O)Nc2ccc3c(c2)OCO3)c1Cl	-8%
CCC[C@@H]1C[C@@]1(CCC)C(NS(=O)(=O)c1cccc2cccnc12)c1ccc(Cl)cc1 (stereo partly drawn)	-12%
O=C(Nc1ccc2c(c1)OCO2)c1cc(C2CC2)on1	-13%
CCN(CC)S(=O)(=O)c1cc(NC(=O)COC(=O)c2sc3ccccc3c2Cl)ccc1C	-14%
COc1ccccc1NC(=O)CN1C(=O)CCS(=O)(=O)c2ccccc21	-12%
COc1cccc(N2CCN(C(=S)NCc3ccco3)CC2)c1	-1%
Cc1ccc(-c2cc(C(F)F)nc(NCc3cccnc3)n2)cc1	-24%
COc1ccc(C2N3CC4(C)CN2CC(C)(C3)C4=O)cc1OC (stereo not drawn)	-11%
C[C@H](CN(C)C)C(O)(c1ccccc1)c1ccccc1	-5%
CC1=CC(c2ccccc2)n2nc(N3C(=O)C4CC=CCC4C3=O)nc2N1 (stereo not drawn)	u
